2A StopGo = FMDV 2A StopGo reporter, luciferase signal; human cells with a luciferase reporter of 2A StopGo recoding; control for the full effect not named in the record; Potency, µM (doses to about 57.9 µM), for inactives: at the highest dose signal change, negative = less light; actives 1.2% (n = 410,000); active = well fitted falling curve with a large enough effect; inconclusive = small, poorly fitted or top-dose-only effect; inactive = no such curve, though single readings can be large or run the other way; tested in HEK293T cells; note: % is set by controls: 0 for no effect and ±100 for the full control effect; nearly all actives have a fitted effect of over 45% in size; luciferase light after 4 h
NS1 function inh = inhibitors of influenza NS1 protein function; S. cerevisiae slowed by influenza A NS1, growth recovery by OD600; Potency, µM (doses to about 46.1 µM), inactives show at the top dose activity, positive = more growth; actives 0.4% (n = 270,000); active means well fitted rising curve with a large enough effect; inconclusive means small, poorly fitted or top-dose-only effect; inactive means no such curve, though single readings can be large or run the other way; note: nearly all actives have a fitted effect of over 50% in size
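A cell-based growth assay was used: compounds that relieve NS1-induced slow growth of budding yeast raise OD600. Assay medium was yeast nitrogen base with ammonium sulphate and -URA supplement, pH 6.0, with 2% galactose.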
MARV entry inh = blocks Marburg virus binding to or entry into cells; AID 540276; actives 1.8% (n = 300,000); Potency, µM (highest dose often 37.8 µM), inactives show at the highest dose activity change, negative = inhibition, hits mostly inhibitors; Marburg virus pseudotyped entry inhibition, cell reporter; control for the full effect not named in the record; about a third of the inactives were read at about 46 µM; active = well fitted inhibition curve with a large enough effect; inconclusive = small, poorly fitted or top-dose-only effect, or effect the other way; inactive = flat fitted curve, though single readings scatter; tested in HEK293 cells; about a fifth of its hits are not listed in these tables; note: % is set by controls: 0 for no effect and ±100 for the full control effect; luciferase read-out
SARS PLpro yeast = inhibitors of SARS-CoV papain-like protease in yeast | S. cerevisiae expressing SARS-CoV PLpro, growth rescue; control for the full effect not named in the record | Potency, µM (doses to about 32.9 µM), for the others: top-dose activity, positive = growth rescue | actives 0.19% (n = 330,000) | AID 485353; active means well fitted rising curve with a large enough effect; inconclusive means small, poorly fitted or top-dose-only effect; inactive means no such curve, though single readings can be large or run the other way; note: 0% is about no effect; nearly all actives have a fitted effect of over 55% in size; growth read by luminescence after 48 h
LASV entry inh = blocks Lassa virus binding to or entry into cells; Lassa virus pseudotype entry inhibition, cell reporter; control for the full effect not named in the record; Potency, µM (top dose mostly 37.9 µM), for the others: top-dose activity change, negative = inhibition, hits mostly inhibitors; actives 1.2% (n = 300,000); AID 540256; active means well fitted inhibition curve with a large enough effect; inconclusive means small, poorly fitted or top-dose-only effect, or effect the other way; inactive means flat fitted curve, though single readings scatter; tested in HEK293 cells; note: % is set by controls: 0 for no effect and ±100 for the full control effect; nearly all actives have a fitted effect of over 50% in size; luciferase read-out
RE007 growth inh = less growth of the S. pombe RE007 Vpr strain | S. pombe RE007 Vpr strain, BacTiter-Glo ATP luminescence, 24 h; control for the full effect not named in the record | Potency, µM (top dose mostly 92.2 µM), without a hit: top-dose activity change, negative = less growth | actives 0.21% (n = 360,000) | AID 651644; active = well fitted falling curve with a large enough effect; inconclusive = small, poorly fitted or top-dose-only effect; inactive = no such curve, though single readings can be large or run the other way;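 note: % is set by controls: 0 for no effect and ±100 for the full control effect; nearly all actives have a fitted effect of over 50% in size; the assay follows cell death caused by Vpr and the record does not say whether a fall means rescue or toxicity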
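Fission yeast strain RE007, carrying one chromosomally integrated HIV-1 vpr copy, was seeded at OD 0.01 in PMG+AL medium with 23 nL pinned compound. After 24 h at 30 °C and 99% humidity, viability was read by BacTiter-Glo luminescence.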
Cruzain Triton = inhibitors of Trypanosoma cruzi cruzain with detergent; P25779; purified cruzain, Z-FR-AMC fluorescence, 0.01% Triton; Potency, µM, for the others: max response, negative = inhibition, most hits filed as inhibitors; actives 0.43% (n = 200,000);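 note: plate controls were neutral wells for no effect and buffer without enzyme for full effect; nearly all actives have a fitted effect of over 40% in size; top concentration of the series not given in the record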
Target sequence (P25779 123-467 limits assumed): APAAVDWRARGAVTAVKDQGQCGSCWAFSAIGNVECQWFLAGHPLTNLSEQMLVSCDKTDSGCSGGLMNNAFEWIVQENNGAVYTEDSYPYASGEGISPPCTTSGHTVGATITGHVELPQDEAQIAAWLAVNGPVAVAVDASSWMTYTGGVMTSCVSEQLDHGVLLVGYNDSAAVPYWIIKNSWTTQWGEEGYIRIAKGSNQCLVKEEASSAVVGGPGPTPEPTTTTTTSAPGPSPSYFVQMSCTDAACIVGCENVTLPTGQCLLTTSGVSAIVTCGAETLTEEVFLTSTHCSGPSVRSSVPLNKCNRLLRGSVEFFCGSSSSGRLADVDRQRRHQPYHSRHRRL
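Compounds were screened in titration against cruzain (1.5 nM) with 0.01% Triton X-100 to counter colloidal aggregation. Activity was the AMC fluorescence increase over 60 s after adding 2 uM Z-FR-AMC at pH 5.5.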
Cruzain noTriton = inhibitors of Trypanosoma cruzi cruzain without detergent; P25779; purified cruzain, Z-FR-AMC fluorescence, no detergent; Potency, µM, for inactives: max response, negative = inhibition, most hits filed as inhibitors; actives 2.3% (n = 200,000);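 note: plate controls were enzyme without inhibitor for no effect and buffer without enzyme for full effect; nearly all actives have a fitted effect of over 40% in size; top concentration of the series not given in the record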
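Purified cruzain at 1.5 nM, pre-incubated 15 min with compound at room temperature in 100 mM sodium acetate pH 5.5, 5 mM DTT, 0.00005% Triton X-100. Reaction started with 2 uM Z-FR-AMC; AMC fluorescence increase over 60 s gives rate.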
Numbers without * were called inactive; ? = inconclusive; · = not tested or not shown; & = joins results of further samples; [ ] = another dose, or the depositor's remark. Unless noted, calls come from the whole dose curve; as a rule, active = well fitted curve in the direction sought with a large enough effect; inconclusive = small, poorly fitted or top-dose-only effect, or another doubt; inactive = no such curve, though single readings can be large; an effect the other way counts as inactive or inconclusive. Potency is the fitted concentration of half-maximal effect.

SMILES	2A StopGo	NS1 function inh	MARV entry inh	SARS PLpro yeast	LASV entry inh	RE007 growth inh	Cruzain Triton	Cruzain noTriton
COc1cc(NC(=O)Cc2nn(C)c(=O)c3ccccc23)cc(OC)c1	?	-21%	?	4%	-19%	12%	-0.7%	12%
C/C(CC(=O)Nc1ccc(N(C)C)cc1)=N\NC(=O)c1ccc(Cl)cc1	3%	-5%	·	0%	·	-1%	·	·
O=C(Nc1cccc(-n2cnnn2)c1)c1cc2ccccc2o1	13%	-10%	·	-1%	·	-3%	·	·
Cc1nonc1CN(C)C(=O)c1cc(COc2ccc(F)cc2Cl)on1	3%	-19%	?	4%	?	2%	·	·
CN(C(=O)CCc1ccccc1F)C1CCCN(Cc2ccccc2F)C1 (configuration not stated)	-5%	9%	-21%	-5%	-17%	-5%	·	·
CC(=O)Nc1ccc(S(=O)(=O)NNC(=S)NCc2ccco2)cc1	-14%	1%	?	-5%	4%	-7%	·	·
C=CCn1c(CCCOc2ccc(Cl)cc2Cl)n[nH]c1=S	-15%	-23%	-19%	-1%	5%	5%	-12%	10%
COC(=O)c1ccc(CSc2nc(C)nc3c2c(=O)n(C)c(=O)n3C)o1	0%	-16%	·	11%	·	0%	-6.5%	3%
CC1CCc2c(sc(NC(=O)c3cccs3)c2C(=O)O)C1 (configuration not stated)	23%	-87%	·	-10%	·	?	·	·
CCCc1ccc(OC(C)C(=O)Nc2sc3c(c2C(=O)OC)CCCCC3)cc1 (configuration not stated)	-15%	·	-3%[46.1 µM]	·	-17%[46.1 µM]	·	-2.4%	-12%
Cc1cc2oc(C(=O)NCc3ccccc3)cc(=O)c2cc1C	-18%	0%	?	-1%	0%[46.1 µM]	7%	·	·
Cc1csc(N2CCCC2=O)n1	-13%	·	-26%[46.1 µM]	5%	5%[46.1 µM]	-6%	·	·
CC(C)Oc1ccc(C2NC(=O)c3ccccc3O2)cc1 (configuration not stated)	19%	3%	0%	25%	?	21%	·	·
COc1ccc(-c2[nH]c(-c3ccc(F)cc3)nc2SCC(=O)NCc2ccco2)cc1OC	-15%	-1%	-4%	7%	·	5%	-6.1%	28%
CCOc1ccccc1CN1C2CCC1CC(c1ccc(C)cc1)C2 (configuration not stated)	-19%	-7%	·	-1%	·	1%	·	·
Cc1ccc2c(c1)C(=O)C(=O)N2CC1COc2ccccc2O1 (configuration not stated)	-8%	-2%	?	-9%	-22%[46.1 µM]	-7%	·	·
c1cncc(-c2nnc3sc(-c4ccco4)nn23)c1	-21%	-5%	5%	1%	-2%	2%	0.9%	-11%
Cc1cccc(Nc2nnc(SCC(=O)Nc3ccccc3[N+](=O)[O-])s2)c1C	?	-3%	?	-19%	?	-1%	-6.2%	?
C=CCOC(=O)C(=O)/C=C/c1coc2ccccc2c1=O	-14%	3%	·	-2%	·	?	·	·
CCOC(=S)N/C(=N\S(=O)(=O)c1ccc(C)cc1)c1ccccc1	0%	6%	3%	5%	3%	-8%	1.6%	4%
O=C(Nc1c(S(=O)(=O)c2ccccc2)csc1Br)c1ccccc1Cl	2%	-1%	14%	0%	-8%	-4%	·	·
O=C(Cn1cc2c(n1)CCCCC2)N1CCCCC1	21%	?	?	-23%	0%	-4%	0.6%	9%
CCCc1cc(=O)[nH]c(SCC(=O)Nc2cc(S(=O)(=O)N3CCOCC3)ccc2N(CC)CC)n1	28%	·	-21%[46.1 µM]	2%	-4%[46.1 µM]	9%	·	·
CC1(C)CC(=O)C=C(NCCN2CCN(C(=S)Nc3ccc(F)cc3)CC2)C1	-6%	0%	-6%[46.1 µM]	3%	-8%	-8%	·	·
COc1cccc(CNC(=O)C2CCN(C(=O)N(C)C)CC2)c1	24%	?	3%	1%	-18%	-2%	-2.2%	3%
O=C(NC1CCCCC1)c1ccc(CSc2nc3ccncc3n2Cc2ccccc2)cc1	-6%	·	-19%[46.1 µM]	·	0%[46.1 µM]	·	-8.1%	19%
COc1ccc(NC(=O)c2ccc3[nH]c(C)c(C)c3c2)c(OC)c1	8%	0%	?	-3%	·	-24%	·	·
S=C(NC1CCCCC1)N1CCn2cccc2C1c1cccnc1 (configuration not stated)	-7%	·	8.9µM*	-9%	?	-7%	·	·
Cc1ccccc1N1C(=O)CC(N2CCN(C(=O)c3ccco3)CC2)C1=O (configuration not stated)	5%	-10%	·	-1%	·	-11%	·	·
O=C(CCc1nnc(C2(c3ccc(Cl)cc3)CCC2)o1)N1CCCC(O)C1 (configuration not stated)	-3%	-3%	·	15%	·	13%	·	·
COC(=O)c1ccc(C(=O)OC)c(NC(=S)N2CCCC(C)C2)c1 (configuration not stated)	46%[activator]	-2%	12%	?	7%	-25%	-1.7%	-1%
CC(C)Oc1ccc(/C(O)=C2/C(=O)C(=O)N(CCN3CCNCC3)C2c2ccc(C(C)C)cc2)cc1 (configuration not stated)	-4%	12%	·	1%	·	5%	·	·
CC1CN=C(NCCc2ccccc2)S1 (configuration not stated)	-3%	7%	-14%[46.1 µM]	-1%	6%	-11%	·	·
COc1ccc(-c2nnc(SCC(=O)Nc3cccnc3Cl)n2C)cc1	-7%	·	3%	1%	0%	6%	·	·
O=C(Nc1cccc(O)c1)c1ccc(Br)c(S(=O)(=O)N2CCCCC2)c1	-12%	12%	-3%	0%	19%	14%	-1.9%	-5%
Cc1ccccc1C(=O)NCCCNC(=O)c1ccco1	-6%	-4%	-3%[46.1 µM]	2%	·	-2%	·	·

Full records, looked up by structure. Values in the order: 2A StopGo	NS1 function inh	MARV entry inh	SARS PLpro yeast	LASV entry inh	RE007 growth inh	Cruzain Triton	Cruzain noTriton
Entry for O=C(CCc1nnc(C2(c3ccc(Cl)cc3)CCC2)o1)N1CCCC(O)C1 (configuration not stated) = -3%	-3%	·	15%	·	13%	·	·
Entry for COc1ccc(-c2nnc(SCC(=O)Nc3cccnc3Cl)n2C)cc1 = -7%	·	3%	1%	0%	6%	·	·

The results go on:
SMILES	2A StopGo	NS1 function inh	MARV entry inh	SARS PLpro yeast	LASV entry inh	RE007 growth inh	Cruzain Triton	Cruzain noTriton
CCOC(=O)C1CCN(CC(=O)N2CCCc3c2c(=O)oc2ccc(OCc4ccccc4)cc32)CC1	-17%	·	8%[46.1 µM]	·	?	·	-9.1%	13%
O=C(COc1cccc2cccnc12)NCc1cccs1	7%	·	12%[46.1 µM]	6%	7%[46.1 µM]	-16%	·	·
CC(=O)c1c(O)cc(C)n(Cc2ccccc2)c1=O	8%	-51%	18%	·	24%	4%	·	·
Cc1ccccc1Cn1cc(NC(=O)c2cc(C3CC3)on2)cn1	46%[activator]	?	·	-1%	·	1%	·	·
COc1ccc(CCNC(=O)c2nnn(-c3ccccc3OC)c2N)cc1OC	-19%	-8%	-16%	-11%	15%	11%	-1.8%	-3%
Cc1cc(C)c2nc(C(F)(F)F)nc(N3CCN(C(=O)c4ccco4)CC3)c2c1	?	-91%	0%	·	-12%	0%	-9.6%	?
O=C(COc1cc2oc(=O)c3c(c2cc1Cl)CCC3)NCC(O)c1ccccc1 (configuration not stated)	-23%	3%	·	2%	·	7%	·	·
Cc1c(N=Nc2c(-c3ccc([N+](=O)[O-])cc3)[nH]n(C(N)=S)c2=O)cccc1[N+](=O)[O-]	?	·	2.8µM*	-1%	?	10%	·	·
Nc1ccccc1Nc1c(F)c(F)nc(F)c1Cl	-15%	1%	3%[46.1 µM]	-2%	6%[46.1 µM]	7%	·	·
CC(=O)c1sc(NC(C)c2ccccc2)nc1C (configuration not stated)	1%	-7%	-17%[46.1 µM]	-13%	-7%	-4%	·	·
Cc1ccc(CSc2nc3ccc(NC(=O)CC(C)C)cc3s2)cc1	3%	·	-18%[46.1 µM]	·	-11%[46.1 µM]	·	-4.2%	4%
N#Cc1cc([N+](=O)[O-])ccc1NC(=O)COC(=O)CC1CCCC1	-7%	-1%	·	0%	·	-20%	·	·
COCC1CCN(C(=O)CCc2nnc(CCCCc3ccccc3)o2)CC1	-12%	1%	?	0%	?	-13%	·	·
CCCNC(=O)NC(=O)CSc1ccc(C)cc1C	20%	·	?	-1%	-1%[46.1 µM]	12%	·	·
CCN(CC)C(=O)Cn1c(=O)n(CCC(=O)Nc2ccc(F)cc2)c(=O)c2sccc21	14%	6%	·	-5%	·	8%	·	·
COc1ccc(CNC(=O)CCCCCNC(=O)N2CCn3c2nc2ccccc23)cc1	5%	-17%	·	-2%	·	-21%	·	·
O=C(NCCc1ccc(Cl)cc1)C1CCN(c2cnccn2)CC1	-6%	-28%	-5%	4%	6%	-8%	0.4%	3%
Cn1cc(CC(=O)NCc2ccc(F)cc2)c2ccccc21	16%	-2%	11%	-1%	1%	-13%	·	·
CC1CCN(c2ccc(S(=O)(=O)NC3=NCCCCC3)cc2[N+](=O)[O-])CC1	-1%	-2%	?	-2%	?	6%	·	·
O=C(NCc1cccnc1)/C(=C/c1ccc(-c2cccc(Cl)c2)o1)S(=O)(=O)c1ccccc1	?	-11%	?	2%	12%	0%	-2.0%	16%
O=C(N/N=C/c1ccncc1)c1cccc(S(=O)(=O)N2CCCC2)c1	-17%	·	-9%	4%	19%	?	·	·
C/C=N/NC(=O)CCCC(=O)N/N=C/C	-23%	·	1%	1%	2%	10%	·	·
Cc1nc2c(-c3ccc(F)cc3)c(C)nn2c(C)c1CCC(=O)N1CCN(c2ccccc2)CC1	1%&-5%	4%	4%[46.1 µM]	5%	15%[46.1 µM]	5%	0.8%&-6.5%	?
CN(C)C(=O)c1cccn(Cc2ccc(C(F)(F)F)cc2)c1=O	1%	·	6%[46.1 µM]	0%	2%	0%	·	·
CC(C)c1ccc(/C=C2\SC(=O)N(CC(=O)NC3CCS(=O)(=O)C3)C2=O)cc1 (configuration not stated)	12%	14%	·	2%	·	-5%	·	·

High-throughput results from PubChem BioAssay.
